CtBP-E1A inh = qHTS Assay for Inhibitors of the CtBP/E1A Interaction. CtBP / adenovirus E1A interaction (AlphaScreen). AlphaScreen GST-E1A/His-CtBP binding, 1536-well; stronger effect = lower value; control for the full effect not named in the record. activity change, % (no concentration beside the values). 0.49% of 340,000 active. AID 651724, 2012; in the data active means activity change below about -65%; inconclusive means about -30% to -65%; inactive means above about -30%; note: % is set by controls: 0 for no effect and ±100 for the full control effect; compound concentration not given in the record
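Homogeneous bead-based format: GST-tagged E1A captured on glutathione donor beads, His-tagged CtBP on nickel acceptor beads; compounds precede bead addition by 2 h at 37 °C.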
D2 potentiator = Beta-Arrestin HTS for Positive Allosteric Modulators of the Human D2 Dopamine Receptor: Potentiators | DiscoveRx D2 beta-arrestin cells, luminescence, 90 min; 100% = 57 uM dopamine signal | potentiation, % (concentration not given with the values) | 0.23% of 360,000 active | AID 624464, 2012; active = potentiation of 50% or more; inconclusive = 30% to 50%; inactive = 30% or less;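 note: compound concentration not given in the record; tested on top of an EC20 dose of dopamine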
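PathHunter beta-arrestin assay in DiscoveRx D2 cells. Compounds were added with an EC20 of dopamine (50 nM final) for 90 min at 37 deg C. Luminescence was read 1 h after detection reagent, with 57 uM dopamine as the EC100 control.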
gsp antagonist = qHTS for Antagonists of gsp, the Etiologic Mutation Responsible for Fibrous Dysplasia/McCune-Albright Syndrome: qHTS; gsp-mutant cells, cAMP HTRF, 30 min; control for the full effect not named in the record; Potency, µM (doses to about 76.9 µM), inactives show top-dose activity change, negative = inhibition, usual class: inhibitors; 0.4% of 340,000 active; active = falling curve of any shape with a large fitted effect; inconclusive = falling curve, mostly with a smaller effect; inactive = flat or rising curve; cell line not stated here;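 note: intracellular cAMP measured with PDE inhibitor Ro 20-1724 present during compound exposure; potency is the fitted concentration of half-maximal effect; % is set by controls: 0 for no effect and ±100 for the full control effect; nearly all actives have a fitted effect of over 65% in size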
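HTRF cAMP read-out (cAMP-d2 plus anti-cAMP antibody-K in lysis buffer, 30 min RT). Before lysis, cells are exposed to compounds with […] for 30 min at 37C in DPBS containing Ca/Mg, BSA and Tween 20.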
Six1-Eya2 blk = qHTS Assay for Inhibitors of the Six1/Eya2 Interaction; Homeobox protein SIX1 (Homo sapiens) + Protein phosphatase EYA2 (Homo sapiens), …; AlphaScreen GST-Six1/His-Eya2 binding, biochemical; stronger effect = lower value; control for the full effect not named in the record; activity change, % (no concentration beside the values); 0.56% of 360,000 active; in the data active = activity change below about -65%; inconclusive = about -30% to -65%; inactive = above about -30%; note: % is set by controls: 0 for no effect and ±100 for the full control effect; compound concentration not given in the record
Target sequence (O00167 whole entry, looked up): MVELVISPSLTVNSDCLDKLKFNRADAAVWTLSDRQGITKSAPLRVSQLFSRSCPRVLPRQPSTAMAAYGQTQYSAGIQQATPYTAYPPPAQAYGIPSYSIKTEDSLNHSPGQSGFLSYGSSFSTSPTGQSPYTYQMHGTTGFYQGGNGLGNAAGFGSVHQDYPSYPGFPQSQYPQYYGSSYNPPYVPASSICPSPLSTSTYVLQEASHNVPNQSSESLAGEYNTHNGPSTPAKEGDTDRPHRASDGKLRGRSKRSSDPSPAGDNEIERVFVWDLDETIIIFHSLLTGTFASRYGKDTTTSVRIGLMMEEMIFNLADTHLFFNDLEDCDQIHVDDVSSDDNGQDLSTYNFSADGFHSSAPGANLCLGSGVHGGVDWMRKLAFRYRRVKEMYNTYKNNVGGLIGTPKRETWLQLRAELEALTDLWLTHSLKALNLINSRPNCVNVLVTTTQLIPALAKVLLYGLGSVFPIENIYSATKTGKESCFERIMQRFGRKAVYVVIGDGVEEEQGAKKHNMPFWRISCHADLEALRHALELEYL
Target sequence (Q15475 whole entry, looked up): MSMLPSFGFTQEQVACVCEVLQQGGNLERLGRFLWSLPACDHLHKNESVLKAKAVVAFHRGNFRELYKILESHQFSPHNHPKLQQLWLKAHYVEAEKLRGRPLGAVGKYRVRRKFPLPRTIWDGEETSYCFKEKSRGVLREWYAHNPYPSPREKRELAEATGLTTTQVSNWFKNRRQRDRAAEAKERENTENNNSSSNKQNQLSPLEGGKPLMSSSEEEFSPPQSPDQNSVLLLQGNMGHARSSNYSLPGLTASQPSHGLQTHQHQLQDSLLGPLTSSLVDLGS
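AlphaScreen luminescence read after one hour at 37 °C in darkness. Pin-transferred compounds met GST-Six1 and His-Eya2 protein (5X stock 250 nM/500 nM) plus glutathione donor and Ni-chelate acceptor beads (5X, 50 ug/mL).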
gsp agonist = qHTS for Agonist of gsp, the Etiologic Mutation Responsible for Fibrous Dysplasia/McCune-Albright Syndrome: qHTS. Potency, µM (top dose mostly 76.9 µM), without a hit: at the highest dose activation (cAMP increase), usual class: activators. gsp mutant cells, cAMP HTRF, 30 min; control for the full effect not named in the record. 0.13% of 340,000 active. AID 624287, 2012; active = well fitted activation curve with a large enough effect; inconclusive = small, poorly fitted or top-dose-only effect, or another doubt; inactive = no such curve, though single readings can be large or run the other way; cell line not stated here;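 note: phosphodiesterase inhibitor Ro 20-1724 added with compounds to block cAMP breakdown; potency is the fitted concentration of half-maximal effect; nearly all actives have a fitted effect of over 60% in size; about a fifth of the inactives were tested at one dose only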
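Cells stably selected in G418 were plated at 2000/well, grown 16-24 hr, then given compounds in DMSO with the PDE inhibitor […] (300 uM solution added) for 30 min at 37C; cAMP was read by HTRF.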
D2 ag = Beta-Arrestin HTS for Positive Allosteric Modulators of the Human D2 Dopamine Receptor: Agonists | D(2) dopamine receptor (Homo sapiens), P14416 | DiscoveRx PathHunter D2 beta-arrestin, luminescence, 90 min; 100% = 57 uM dopamine signal | activation, % (test concentration not listed) | 0.084% of 360,000 active | AID 624465, 2012; in the data active = activation above about 40%; inconclusive = about 15% to 40%; inactive = below about 15%; note: compound concentration not given in the record; the text of the record calls up to 30% inactive
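Agonist mode: compounds alone added to overnight-plated D2 PathHunter cells for 90 min at 37 C, with 57 uM final dopamine (EC100) defining full response. Beta-arrestin recruitment detected by chemiluminescent reagent, read after 1 h at ambient temperature.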
An asterisk follows results filed as active; ? = inconclusive; . = not tested or not shown; [ ] = remark or other dose.

SMILES	CtBP-E1A inh	D2 potentiator	gsp antagonist	Six1-Eya2 blk	gsp agonist	D2 ag
Cc1cc(C)cc(N(C(=O)Cn2nnc(-c3ccccc3)n2)C(C(=O)NC2CCCCC2)c2ccccn2)c1 (configuration not stated)	8.0	-19.3	5.9%	1.1	-1.4%	-2.8
CCCCn1c(=NC(C)=O)c(C#N)cc2c(=O)n3cccc(C)c3nc21	-7.5	-1.1	-14.9%	-1.7	-6.0%[15.4 µM]	2.5
O=C(CSc1nnc2sc3ccccc3n12)N1CCN(c2ccccc2)CC1	-3.9	-13.8	-19.2%	-1.2	14.4%	-2.3
CCOC(=O)c1c(S(=O)(=O)N2CCN(C3CCCCC3)CC2)c(C)n(C)c1C	0.0	-26.3	10.9%	-5.6	11.7%	2.3
Cc1ccc(-c2nc3c(Cl)cc(C(F)(F)F)cn3c2Cc2ccccc2)cc1	7.3	1.9	.	8.1	.	-2.4
CCN(CC)C(=O)C1=C(C)N(Cc2ccc(C(C)(C)C)cc2)C(=O)C(CC(=O)NC2CC2)C1 (configuration not stated)	8.3	2.8	.	4.8	-61.9%[inhibitor]	-6.3
O=C1c2cccc3cccc(c23)C(=O)N1CC1CCN(S(=O)(=O)c2ccc(F)cc2)CC1	-16.5	-9.0	-5.3%	-0.9	13.1%	-2.0
O=C(O)C1CCN(S(=O)(=O)Cc2ccccc2)CC1	2.8	-2.1	9.1%	23.5	-10.8%	-2.4
CCC(=O)c1ccc(OCC(=O)N2CCN(S(=O)(=O)c3ccc(Cl)s3)CC2)cc1	5.8	-2.0	?	-2.2	4.9%	?
CCC(=O)N1CCN(c2ccccc2NC(=O)c2cccs2)CC1	-1.0	-15.7	-14.0%	-8.1	14.1%[15.4 µM]	-3.7
COc1cccc(C(=O)CSc2nnc(CNS(=O)(=O)c3ccc(C)cc3)n2C)c1	-1.6	-17.9	0.4%	-1.0	-15.0%	-3.9
c1cncc(CNc2c3c(nc4nnnn24)CCCC3)c1	1.5	-16.0	10.3%	-0.6	-13.3%	-4.3
CCCC1CCC(C(=O)Nn2c(C)nc3ccccc3c2=O)CC1 (configuration not stated)	28.3	-6.8	1.7%	0.0	-2.7%	2.1
CCOC(=O)N1CCN(S(=O)(=O)c2ccc(C(=O)Nc3sc4c(c3C(N)=O)CC(C)(C)NC4(C)C)cc2)CC1	-6.0	-6.0	-4.7%	-6.2	?	-3.2
CC(=O)Nc1ccc(N/C=C/C(=O)c2ccc(Br)cc2)cc1	-2.4	-3.0	-8.2%	3.3	-17.8%	7.9
CCn1cnc2sc(C(=O)O)c(C)c2c1=O	-2.3	-6.6	1.8%	0.3	4.0%	-3.3
CC(NC(=O)CN1CCN(Cc2ccc(Cl)cc2)C1=O)c1ccc2c(c1)OCCO2 (configuration not stated)	24.1	-6.1	-2.9%	8.9	10.5%	-4.8
Cc1ccccc1S(=O)(=O)N(CC(O)CN1CCCCC1)c1ccccc1 (configuration not stated)	.	-11.7	7.1%	-3.0	-5.4%	-0.8
Cc1ccc(NC(=O)CC2C(=O)NCCN2C(=O)c2ccc(F)cc2)cc1 (configuration not stated)	0.3	-6.7	2.2%	3.5	-54.8%[inhibitor]	-7.1
Nc1nc(SCc2ccccc2)c2ncn(C3OC(CO)C(O)C3O)c2n1 (configuration not stated)	5.0	-3.4	2.4%	-0.1	-3.4%	0.2

6 compounds from above, sorted by length of the SMILES, ascending.
SMILES	CtBP-E1A inh	D2 potentiator	gsp antagonist	Six1-Eya2 blk	gsp agonist	D2 ag
CCCC1CCC(C(=O)Nn2c(C)nc3ccccc3c2=O)CC1 (configuration not stated)	28.3	-6.8	1.7%	0.0	-2.7%	2.1
CC(=O)Nc1ccc(N/C=C/C(=O)c2ccc(Br)cc2)cc1	-2.4	-3.0	-8.2%	3.3	-17.8%	7.9
Cc1ccccc1S(=O)(=O)N(CC(O)CN1CCCCC1)c1ccccc1 (configuration not stated)	.	-11.7	7.1%	-3.0	-5.4%	-0.8
Cc1ccc(-c2nc3c(Cl)cc(C(F)(F)F)cn3c2Cc2ccccc2)cc1	7.3	1.9	.	8.1	.	-2.4
CCC(=O)c1ccc(OCC(=O)N2CCN(S(=O)(=O)c3ccc(Cl)s3)CC2)cc1	5.8	-2.0	?	-2.2	4.9%	?
CCN(CC)C(=O)C1=C(C)N(Cc2ccc(C(C)(C)C)cc2)C(=O)C(CC(=O)NC2CC2)C1 (configuration not stated)	8.3	2.8	.	4.8	-61.9%[inhibitor]	-6.3

(further entries)
SMILES	CtBP-E1A inh	D2 potentiator	gsp antagonist	Six1-Eya2 blk	gsp agonist	D2 ag
Cc1c(N=Nc2c(-c3ccc([N+](=O)[O-])cc3)[nH]n(C(N)=S)c2=O)cccc1[N+](=O)[O-]	-3.8	-11.1	8.91µM*	-14.3	-15.9%	0.5
O=C(O)c1ccc(CSc2nc3c(c(=O)[nH]2)CCC3)cc1	22.8	1.3	.	10.0	.	-0.4
Cc1cc(O)c(C(C)C)cc1NC(=O)c1ccc(Cl)cc1	-4.1	-16.3	-10.2%	-8.1	1.3%	-1.3
O=C(c1cc(Br)ccc1Cl)N1CCN(c2ccc(N3CCOCC3)nn2)CC1	-2.3	-0.3	-15.5%	-0.6	?	0.8
COc1cc(C(=O)NNC(=O)C2CCCC2)cc(OC)c1OC	7.9	-2.0	1.9%	0.1	15.3%	0.0
O=S(=O)(Nc1cc(Cl)ccc1-n1cncn1)c1cc(Br)ccc1Br	4.2	1.5	?	-1.4	9.0%	-1.1
COc1ccc(NC(C)=O)cc1NC(=O)CCn1c(=O)sc2ccccc21	0.2	-0.3	4.8%	5.5	6.5%	-1.7
C/C(CC(=O)NCc1ccco1)=N\NC(=O)CC#N	-2.7	-0.7	9.6%	-6.6	?	-2.7
O=C(CN1CCN(Cc2cccc(Cl)c2)C1=O)NCc1cccs1	-0.4	-15.3	-2.0%	2.1	18.7%	-6.5
CNC(=S)SCCOc1ccc(C)cc1	16.5	-10.7	-6.7%	31.7	3.5%	-5.5
O=C(NCCc1ccccc1)c1cnn2c(C(F)F)cc(C3CC3)nc12	-4.2	-18.3	-1.6%[15.4 µM]	7.4	-38.2%[inhibitor]	-3.0
CCOCCCNC(=S)NCCc1ccccc1	-5.5	-22.0	16.9%	-6.4	0.0%	1.1
CCNC(=O)C1(C)CCN(C(=O)c2ccc(C(F)(F)F)cc2)C1 (configuration not stated)	5.0	-7.7	.	3.9	.	1.4
Cc1ccc(NC(=O)CCC(=O)NCCO)cc1	0.4	8.5	7.6%	-1.3	0.0%	-1.3
COc1ccccc1CNCc1ccc2c(c1)OCO2	0.9	-21.8	.	10.8	-4.5%	0.3
Cc1ccc(NC(=S)N2CCN(Cc3ccc4c(c3)OCO4)CC2)c(C)c1	-2.4	9.4	-16.4%	-14.5	4.5%	-5.8
COc1cc(C(=S)N2CCCC2)cc(OC)c1OC	-1.4	-2.5	-5.3%	-0.4	1.4%	-5.3
CCOC(=O)c1c(-c2ccccc2)csc1NC(=O)CSc1ccccc1	13.5	-3.3	-18.3%	15.8	-4.2%	-0.1
Cc1ncc(CO)c(/C=N/NC(=O)c2ccccc2Br)c1O	-82.6*	-10.0	1.1%	-90.5*	0.3%[15.4 µM]	0.7
COc1ccc(C(=O)Nc2ccccc2C(=O)N/N=C/c2cccc3ccccc23)cc1	-8.9	-9.8	-14.5%	-15.0	-0.7%	-3.3
CCN(CC)Cc1ccc(OC)c(Cl)c1	8.5	-5.0	0.9%	1.2	3.5%[15.4 µM]	-12.4
COc1cc2sc(C)nc2c2ccccc12	-6.8	0.3	0.0%	-14.7	5.4%	-1.6
Cc1ccc(C2NC(c3ccc(C)cc3)C([N+](=O)[O-])C(C)(C)C2[N+](=O)[O-])cc1 (configuration not stated)	-9.3	-13.3	-6.8%	-8.8	-0.8%[15.4 µM]	-1.2
CC1(C)NC(=O)N(CC(=O)N2CCN(S(=O)(=O)c3cc(Cl)ccc3Cl)CC2)C1=O	.	1.6	12.8%	5.5	?	-1.9
CCCCCCCCCC[n+]1cccc2c3ccccc3ccc21	-2.4	-24.3	-17.9%	-4.1	-25.5%	0.7
O=C(COC(=O)CCNS(=O)(=O)c1ccc(Cl)cc1)NCc1ccco1	-1.0	-20.5	3.9%	1.2	-2.5%	-3.3
COC(=O)c1ccc(NC(=O)CSc2nc(=O)cc(N)n2-c2ccccc2)cc1	.	-1.1	-2.9%	-9.3	2.1%	-2.6
CCc1noc(C)c1C(=O)OCC(=O)Nc1cccc(C)c1	14.2	6.4	0.9%	0.8	-19.0%	-1.3
Cc1cc(OCCN2CCCCCC2)ccc1[N+](=O)[O-]	-4.3	-9.8	3.0%	-2.3	?	-4.8
O=C(COC(=O)c1ccc(Cl)nc1)NCCc1ccc(F)cc1	-13.9	-3.3	12.3%	-2.3	-15.1%	-4.2
CCCCN(C)S(=O)(=O)c1cc2c(cc1Br)CCN2C(=O)C1CC1	-5.0	-13.2	?	-6.2	-19.2%	0.4
O=C(Nc1ccc2c(c1)CCC2)c1cccs1	7.9	-29.9	-13.5%	9.7	-7.7%[15.4 µM]	-5.0
CCN(CC)S(=O)(=O)c1ccc2oc(SCC3CN=C(c4ccc(OC)cc4)S3)nc2c1 (configuration not stated)	-0.3	13.8	?	-1.9	28.7%	-1.2
Cc1cc(C)c(C)c(S(=O)(=O)N2CCN(c3ccccn3)CC2)c1C	-5.6	-6.7	-6.7%	0.0	17.3%	3.8
COc1ccc(-c2coc3c(C(=O)N4CCN(C)CC4)cccc23)c(C)c1	-2.8	-10.7	.	-2.6	.	2.1
CCc1cc(C(=O)N2CCCC(CNS(=O)(=O)c3cccs3)C2)n(C)n1 (configuration not stated)	-19.7	-12.3	1.2%	8.8	-1.7%	0.5
Cc1nc2cc(Cl)c([N+](=O)[O-])cc2s1	0.5	-3.0	1.8%	-0.4	15.8%[15.4 µM]	0.0
O=C(CCS(=O)(=O)c1cccc2nonc12)NCCc1ccccc1	7.8	-6.7	8.8%	2.8	-3.4%	-1.5
O=C(CN1C(=O)NC2(CCCC2)C1=O)N1CCN(S(=O)(=O)c2cccc(F)c2)CC1	2.5	-8.1	11.4%	5.7	2.5%[15.4 µM]	-0.9
N#CCCN(Cc1cccnc1)C(=S)NC(=O)c1ccccc1	9.8	-8.4	9.5%	2.8	-5.8%[15.4 µM]	-1.1
Cc1ccc(-c2nnn(CC(=O)Nc3nnc(C(C)C)s3)n2)cc1	8.5	3.2	.	-1.8	15.3%[15.4 µM]	-3.3

Bioassay records: PubChem BioAssay, National Center for Advancing Translational Sciences (NCATS)
